Assay outcomes: PubChem BioAssay, National Center for Advancing Translational Sciences (NCATS)
2A firefly – FMDV 2A StopGo reporter, firefly signal; HEK cells with a luciferase reporter of 2A StopGo recoding; Potency, µM (top dose mostly 57.5 µM), for inactives: at the top dose signal change, negative = less light; hit rate 0.23% among 120,000; active = well fitted falling curve with a large enough effect; inconclusive = small, poorly fitted or top-dose-only effect; inactive = no such curve, though single readings can be large or run the other way; also: nearly all actives have a fitted effect of over 60% in size; overnight with compound
2A Renilla – lowers the Renilla signal of an FMDV 2A StopGo reporter | HEK cells with a luciferase reporter of 2A StopGo recoding | Potency, µM (series often up to 57.5 µM), for inactives: at the highest dose signal change, negative = less light | hit rate 0.32% among 120,000 | AID 1745857; active means well fitted falling curve with a large enough effect; inconclusive means small, poorly fitted or top-dose-only effect; inactive means no such curve, though single readings can be large or run the other way; also: nearly all actives have a fitted effect of over 55% in size; overnight with compound
Numbers without * were called inactive; ? = inconclusive; & = joins results of further samples; [ ] = dose if it differs, or a comment. % is scaled to controls: 0 for no effect and ±100 for the full control effect; potency is read from the fitted curve at half-maximal effect. The list is partial; the hit share may differ from the screen's.

SMILES | 2A firefly | 2A Renilla
COc1ccc(N2CCN(C(=O)C3CCCN(C(=O)c4cc5sccc5n4C)C3)CC2)cc1 (centres undefined) | -19.8% | -10.1%
CSc1ccc(C(c2c(O)c3ccccc3oc2=O)c2c(C)n(C)n(-c3ccccc3)c2=O)cc1 (centres undefined) | -11.5% | 96.9%[activator]
CCn1nc(C(=O)Nc2ccccn2)c2ccccc2c1=O | 59.1%[activator] | 22.9%
Cc1c(C(=O)c2ccc[nH]2)oc2ccc(Br)cc12 | 171.7%[activator] | 11.1%
COc1cc(NC(=O)c2ccc(-n3cnc4cccnc43)cc2)cc(OC)c1 | 26.6% | 5.8%
CN(C(=O)COC(=O)c1c[nH]c2ccccc12)c1ccccc1 | 53.7%[activator] | 44.6%[activator]
CCOC(=O)c1sc(NC(=O)c2ccc(F)c(S(=O)(=O)N3CCCCC3)c2)cc1C | 6.5% | 24.5%
CCc1ccc(NCc2cc3cc4c(cc3n(CC(=O)Nc3ccccc3OC)c2=O)OCCO4)cc1 | 15.7% | -2.9%
CS(=O)(=O)c1ccc(C(=O)C2C(=O)CCCC2=O)c([N+](=O)[O-])c1 | -2.1%[22.9 µM] | -6.8%[114 µM]
CCCOC(=O)c1c(-c2ccccc2)c(-c2ccccc2)nn(C)c1=O | -15.0% | 21.8%
COc1ccc2c(CCNC(=O)c3ccccc3F)c[nH]c2c1 | 73.1%[activator] | 63.3%[activator]
CCN(C(=O)CCNC(=O)Cn1cnc2ccccc2c1=O)c1cccc(Cl)c1 | -15.0% | -7.7%
CCOc1ccc2oc(=O)cc(CN3CCN(Cc4ccc(C)cc4)CC3)c2c1 | 2.1%&-4.9% | 1.1%&-9.2%
COc1ccc(Oc2ccc(CNc3ncccn3)cn2)cc1 | 48.1%[activator] | 4.4%
COc1ccc(/C=C/C(=O)Nc2ccc3nc(N4CCC(C)CC4)cc(C)c3c2)cc1 | 2.0% | -5.6%
CCN(CC)S(=O)(=O)c1cccc(C(=O)OCc2nc3ccccc3nc2C)c1 | -18.7% | -11.4%
Cc1nc(-c2ccc(CNC(=O)NCc3ccccc3)s2)cs1 | 69.4%[activator] | 7.0%
CCC(CC)NCc1cccc(Oc2ccccc2)c1 | ? | -8.8%
COc1ccc(CCNCCc2ccc(OC)cc2)cc1 | -0.9% | -3.1%
Cc1cccc(C(=O)NC(Nc2ccc(C)cc2C)C(Cl)(Cl)Cl)c1 (centres undefined) | -12.4% | 25.3%

Individual results from the list.
For 2A firefly, COc1ccc(Oc2ccc(CNc3ncccn3)cn2)cc1 has 48.1%[activator]
For 2A Renilla, COc1ccc(CCNCCc2ccc(OC)cc2)cc1 has -3.1%

(cont.)
SMILES | 2A firefly | 2A Renilla
Fc1cc(Br)ccc1OCc1cc(-c2ccccc2)on1 | 98.8%[activator] | -3.8%
CCc1cccc(C)c1NC(=O)CSc1nc2ccccc2nc1Cc1ccccc1 | -27.5% | -4.1%
O=C(c1ccc(CS(=O)(=O)c2ccc(Br)cc2)o1)N1CCN(c2ccc(F)cc2)CC1 | 71.3%[activator] | 49.2%
C[n+]1cc2c3c(ccc2c2ccc4cc5c(cc4c21)OCO5)OCO3 | 48.6%[activator][5.23 µM] | ?
COC(=O)Nc1cc(C(=O)OC)ccc1C(=O)OC | 7.1% | -3.4%
CN(CC(=O)Nc1cccc(F)c1)C(=O)CCc1ncc(-c2ccc(F)cc2)o1 | 5.6% | -24.5%
COc1cccc(Nc2nc3cc(Cl)c(Cl)cc3nc2-n2nc(C)cc2C)c1 | -6.9% | -13.0%
COc1cc(OC)c(NC(=O)n2ncc3cc(Cl)ccc32)cc1Cl | 8.1% | -8.6%
COc1ccc(-n2nc(C(=O)Nc3ccc(Cl)cn3)c3c4ccccc4n(C)c3c2=O)cc1 | -10.0% | 3.0%
CCNc1c(NS(=O)(=O)c2ccc(Cl)s2)c(=O)oc2ccccc12 | -2.2% | 13.6%
CC(NC(=O)c1cc(Sc2ccc(F)cc2F)nc2ccccc12)c1ccccc1 (centres undefined) | ? | 5.2%
COc1cccc2cc(-c3csc(-c4ccccc4)n3)c(=O)oc12 | 0.2% | 7.9%
COc1ccccc1CNC(=O)Nn1cnc2ccccc21 | 0.0% | -10.5%
O=C(O)C(O)c1ccc(F)cc1 (centres undefined) | 2.1% | 0.5%
O=c1oc2ccc(F)cc2cc1S(=O)(=O)N1CCCCCC1 | -6.4% | -11.3%
COc1ccc(C(=O)NCc2nnc(SCC(=O)Nc3ccc(F)cc3)n2-c2ccccc2)cc1 | -29.7% | 30.1%[activator]
CCN1CCN(C(c2ccccc2F)c2c(O)cc(C)n(CCOC)c2=O)CC1 (centres undefined) | -21.8% | 76.5%[activator]
CCOC(=O)c1cccc(NC(=O)c2ccc3nc(C(C)C)oc3c2)c1 | -7.6% | -15.0%
O=C(Nc1ccc(Cl)cc1)C1CCN(S(=O)(=O)c2ccc(Br)s2)CC1 | ? | ?
CSCc1cccc(C(=O)N(CC2CCOC2)C2CC2)c1 (centres undefined) | -1.5% | 6.9%
Cc1ccc(N(CCCC(=O)Nc2ccccc2Br)S(C)(=O)=O)cc1 | 25.9% | -0.5%
COc1cccc(CNC(=O)c2cc(-c3ccc(Cl)s3)nc3ccccc23)c1 | ? | ?
CN(Cc1ccsc1)C(=O)CCc1cccs1 | 17.6% | 124.5%[activator]
Cc1ccc(-n2nc(C)c3c(C(=O)NCCc4ccccc4)cc(C)nc32)cc1 | -10.7% | -1.7%
COc1ccc(C(=O)N(C)CC23CC4CC(CC(C4)C2)C3)c(O)c1 | 2.2% | 127.4%[activator]
CCC(C)(C)C1CCc2c(sc(NC(=O)c3ccccc3C)c2C#N)C1 (centres undefined) | 1.1% | -9.0%
CCCCCCCCS(=O)(=O)CCCCO | 0.0% | 15.5%
Cc1cccc(CNC(=O)Cn2ccc3cc(S(=O)(=O)N4CCC(C)CC4)ccc32)c1 | -4.7% | 90.0%[activator]
Cc1nc2ccccc2c(-c2ccccc2)c1C(=O)/C=C/c1ccccc1 | ? | ?
CCc1ccc(-n2nc3ccc(NC(=O)c4cc(Cl)c(OC)c(Cl)c4)cc3n2)cc1 | -7.8% | -4.8%

Next section, starting with the last 7 of the part before.
SMILES | 2A firefly | 2A Renilla
Cc1ccc(-n2nc(C)c3c(C(=O)NCCc4ccccc4)cc(C)nc32)cc1 | -10.7% | -1.7%
COc1ccc(C(=O)N(C)CC23CC4CC(CC(C4)C2)C3)c(O)c1 | 2.2% | 127.4%[activator]
CCC(C)(C)C1CCc2c(sc(NC(=O)c3ccccc3C)c2C#N)C1 (centres undefined) | 1.1% | -9.0%
CCCCCCCCS(=O)(=O)CCCCO | 0.0% | 15.5%
Cc1cccc(CNC(=O)Cn2ccc3cc(S(=O)(=O)N4CCC(C)CC4)ccc32)c1 | -4.7% | 90.0%[activator]
Cc1nc2ccccc2c(-c2ccccc2)c1C(=O)/C=C/c1ccccc1 | ? | ?
CCc1ccc(-n2nc3ccc(NC(=O)c4cc(Cl)c(OC)c(Cl)c4)cc3n2)cc1 | -7.8% | -4.8%
Cc1nn(CC(=O)Nc2nc3c(C)cccc3s2)c(=O)c2ccccc12 | 33.6% | 7.3%
COc1ccccc1CNC(=O)c1ccccc1C(F)(F)F | 21.3% | 42.2%[activator]
COc1ccc(/C=N/OCc2ccc(Cl)c(Cl)c2)c(OC)c1 | 105.9%[activator] | 36.8%[activator]
CCN(CC)S(=O)(=O)c1ccc2c(c1)c(=O)c(C(=O)NCc1ccccc1)cn2C | -7.9% | 29.7%
CCCCn1c(C2CC(=O)N(c3ccc(OCC)cc3)C2)nc2ccccc21 (centres undefined) | -15.0% | 54.9%[activator]
CC(C)=CC1C(C(=O)Nc2ccccc2OC(F)(F)F)C1(C)C (centres undefined) | -7.1% | 1.3%
COC(=O)C1CN(Cc2ccccc2)CCS(=O)(=O)N1Cc1cn(Cc2ccc(Cl)cc2)nn1 (centres undefined) | 3.1% | 5.8%
Cc1ccc(C)c(N(C)C(=O)C2CCN(S(=O)(=O)c3cccc4nsnc34)CC2)c1 | -13.9% | 6.7%
CCCCCCCCN1c2ccccc2S(=O)c2ccccc21 | ? | ?
Cc1cccc(C(=O)n2nc(C)c(S(=O)(=O)N3CCOCC3)c2C)c1 | -21.4% | -4.5%
CC(CO)Nc1nc2c(c(=O)n(Cc3ccccc3Cl)c(=O)n2C)n1C (centres undefined) | -6.0% | -15.7%
NS(=O)(=O)c1ccc(N/N=C/C2CCCCC2)c([N+](=O)[O-])c1 | 15.2% | -11.7%
COc1ccc(C2CC(=O)c3cc(-c4nc(-c5ccc(Cl)cc5)cs4)c(=O)[nH]c3C2)cc1OC (centres undefined) | 2.3% | -14.6%
C=CCC1(CC=C)CCCCN1 | 35.7%[activator] | -2.0%
Cc1cc(C(=O)OCC(=O)NC2CCCCCCC2)c2ccccc2n1 | 1.1% | -8.9%
COCCNC(=O)c1cnn(-c2ccc(C)cc2C)c1C1CCN(C(=O)OC(C)(C)C)CC1 | -17.0% | 10.3%
CC(C)(C)NC(=O)CC1(C(=O)NCc2ccccc2)CCCC1 | 14.9% | 14.9%
COc1cc(OC)cc(C(=O)Nc2ccc3nc4n(c(=O)c3c2)CCCCC4)c1 | 151.8%[activator] | -2.2%
Cc1ccc(NC(=O)CN(C)c2nc(CN3CCOCC3)nc3sc(C)c(C)c23)cc1 | -14.3% | -10.4%
COc1cc(C2SCCS2)ccc1OC(=O)c1cc(OC)c(OC)c(OC)c1 | 10.8% | -1.6%
C/C(=N/NC(=S)NC1CCCCC1)c1ccc(C(C)(C)C)cc1 | ? | ?
CCCOC(=O)c1ccc(Oc2c(C)oc3cc(OC(=O)C(C)C)ccc3c2=O)cc1 | -0.8% | -7.1%
O=C(O)CCC(=O)N1CCN(c2nc(-c3ccccc3)c3cc(Br)ccc3n2)CC1 | -16.6% | -14.7%
COc1ccc2c(c1)C(=O)/C(=C/c1ccc(Br)cc1)CC2 | 6.8% | 16.6%
O=C(Nc1ccccc1O)c1cc(-c2ccncc2)nc2ccccc12 | 2.2% | -7.8%
CC(C)(C)NC(=O)CSc1nc(-c2ccco2)nc2ccccc12 | -8.1% | -12.7%
CC[N+](CC)(CCNC(=O)C(=O)NCC[N+](CC)(CC)Cc1ccccc1Cl)Cc1ccccc1Cl | 9.9%[11.5 µM] | -7.0%
O=C(c1ccccc1)N(Cc1ccco1)C1CC1 | -5.7% | 12.2%
COc1ccc(-c2cc(NC(=O)c3cccc(S(=O)(=O)NCC4CCCO4)c3)ccc2OC)cc1 (centres undefined) | 5.1% | 52.1%[activator]
O=C(/C=C/NC1CCN(Cc2ccccc2)CC1)C(F)(F)F | 0.2% | -2.7%
O=C(COc1ccccc1F)Nc1cccc2cccnc12 | 57.6%[activator] | 6.0%
COc1ccc(C(=O)NNC(=O)CC2Sc3ccccc3NC2=O)cc1 (centres undefined) | 39.8%[activator] | 3.2%[1.06 µM]
Cc1ccc(NC(=O)c2ccc3nc(Cc4ccccc4)oc3c2)cc1F | 5.1% | 52.5%[activator]
COc1cc(CCNC(=O)c2cc(=O)c3ccccc3o2)ccc1OC(F)F | 0.1% | 2.1%
C=C(C)CN(CC)C(=O)/C=C/c1csc(C)n1 | 27.7% | 18.5%
CCN1CCCC(OC(=O)C(c2ccccc2)c2ccccc2)C1 (centres undefined) | -8.9%[11.5 µM] | -3.4%
O=S(=O)(c1cccc2nsnc12)N(Cc1ccncc1)C1CC1 | ? | ?
Cc1cc2n(n1)CCCN2C(=O)Nc1ccc(F)c(Cl)c1 | -6.8% | -3.2%
O=C(CCc1c[nH]c2ccccc12)NC12CC3CC(CC(C3)C1)C2 | 0.0% | -7.8%[1.06 µM]
COc1ccc2c(C)c(CCC(=O)NCc3ccccc3Cl)c(=O)oc2c1C | -7.0% | -10.8%
Cc1c(Cl)cccc1N=Cc1ccc(C=Nc2cccc(Cl)c2C)cc1 | 5.2% | -0.3%
C=C(C)C[C@H]1CC=C[C@H](CC(=C)C)[N+]1(C)C | 9.0% | -2.3%
O=C(O)/C=C/c1ccc(Cl)cc1Cl | 0.0% | -13.2%
CC1(C)CC(NC(=O)CCn2ccc3ccccc32)CC(C)(C)N1 | 14.2% | 3.2%
COc1cc2c(cc1OC)C(COc1ccc(F)cc1)N(C(=O)C(C)C)CC2 (centres undefined) | 4.7% | 6.0%
COc1cccc(C(=O)OCc2ccc(C#N)cc2)c1OC | 0.5% | 4.3%
COc1cccc(/C=C(\C#N)c2nc3ccc(C)cc3[nH]2)c1 | 125.1%[activator] | 150.1%[activator]
Cc1cc(C)c(C(=O)Nc2ccccc2)c(SCC(=O)Nc2ccc(Br)cc2C)n1 | -8.6% | 4.5%
COc1ccc(C2C(C(C)=O)=C(O)C(=O)N2c2cccc(OC)c2)cc1 (centres undefined) | 77.9%[activator] | 62.6%[activator]
CCOC(=O)c1cccc(NC(=O)C2CCCN(S(=O)(=O)c3cc(Br)cc4c3N(C(=O)CC)CC4)C2)c1 (centres undefined) | -19.3% | -10.0%
Continuation.
SMILES | 2A firefly | 2A Renilla
COc1ccccc1OCC(=O)N(Cc1cccs1)C1CCS(=O)(=O)C1 (centres undefined) | -18.2% | 1.8%
O=C1CCSc2c1cccc2C(=O)NCc1ccccc1Cl | 26.8% | 28.6%
O=C(CN1CCOCC1)N1N=C(c2cc3ccccc3o2)CC1c1ccco1 (centres undefined) | 0.0% | 1.5%
O=C(CCc1ccncc1)Nc1ccccc1 | 100.0%[activator] | 13.4%
Cc1nc2nc(CNC(=O)c3cccc(F)c3)nn2c(C)c1CCC(=O)Nc1cccc(Cl)c1 | 3.7% | 16.8%
CC1CCC(=NO)CC1 (centres undefined) | -3.7% | 8.1%
Cc1cccc(CCNC(=O)c2cc3c(=O)[nH]c4ccc(C)cc4c3s2)c1 | -7.3% | -12.9%
CCOc1cccc2c1Oc1nc(-c3cccc(OC(C)C)c3)[nH]c(=O)c1C2 | 5.2% | 1.6%
